Menin MLL FP FL – qHTS Assay for Inhibitors Targeting the Menin-MLL Interaction in MLL Related Leukemias: Competition With Fluorescein Labeled MLL-derived Peptide; Fluorescence polarization, fluorescein-MLL peptide displacement from menin; FP activity change, % at 61.4 µM; 290,000 tested, under 10 active; inconclusive = falling polarisation curve, or a change in total fluorescence; inactive = total fluorescence flat and polarisation flat or rising; no compound was filed as active; the % refers to the polarisation; negative = inhibition;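 further: % of control where 0% means no effect; inhibitors lower the polarisation; unlabelled MLL peptide was the positive control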
TRPML1 inh – qHTS for Inhibitors of the Human Mucolipin Transient Receptor Potential 1 (TRPML1) | AID 624415, 2012 | 390,000 tested, 0.02% active | TRPML1-inducible cells, Ca2+ dye fluorescence, FDSS; hits give low values; inhibition of EC80 agonist-evoked calcium signal | activity change, negative = inhibition, % (concentration not given with the values) | Mucolipin-1 (Homo sapiens), Q9GZU1; in the data active means activity change below about -50%; inconclusive means about -30% to -50%; inactive means above about -30%;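 further: stimulus is agonist 54-4 at its EC80 concentration; on the % scale 0 is the no-effect control and ±100 the full control effect; compound concentration not given in the record; the text of the record puts the active cut at -80%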
Target sequence (Q9GZU1 whole entry, looked up): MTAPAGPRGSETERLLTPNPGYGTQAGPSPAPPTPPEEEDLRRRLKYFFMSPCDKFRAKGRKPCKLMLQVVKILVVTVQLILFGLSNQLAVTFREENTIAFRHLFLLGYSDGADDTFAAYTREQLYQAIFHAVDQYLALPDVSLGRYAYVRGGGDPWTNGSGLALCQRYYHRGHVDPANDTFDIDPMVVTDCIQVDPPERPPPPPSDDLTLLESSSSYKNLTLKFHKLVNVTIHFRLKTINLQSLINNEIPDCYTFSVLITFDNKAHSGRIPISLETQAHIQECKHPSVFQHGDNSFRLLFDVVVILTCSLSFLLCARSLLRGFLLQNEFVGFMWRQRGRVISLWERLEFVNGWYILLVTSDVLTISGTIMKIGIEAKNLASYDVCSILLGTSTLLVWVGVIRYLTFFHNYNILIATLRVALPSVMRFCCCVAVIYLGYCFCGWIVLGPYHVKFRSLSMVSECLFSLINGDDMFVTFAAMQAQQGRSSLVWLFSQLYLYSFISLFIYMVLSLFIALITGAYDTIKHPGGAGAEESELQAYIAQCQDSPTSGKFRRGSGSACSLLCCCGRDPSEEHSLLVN
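Calcium fluorescence in TRPML1-DL cells induced overnight with Tet: a 110 s read after compound pin addition, then a 110 s antagonist read after challenge with 54-4 at 4 uM final (EC80).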
gsp antagonist – qHTS for Antagonists of gsp, the Etiologic Mutation Responsible for Fibrous Dysplasia/McCune-Albright Syndrome: qHTS; gsp-mutant cells, cAMP HTRF, 30 min; control for the full effect not named in the record; Potency, µM (doses to about 76.9 µM), for inactives: at the highest dose activity change, negative = inhibition, hits mostly inhibitors; 340,000 tested, 0.4% active; AID 624288, 2012; active = falling curve of any shape with a large fitted effect; inconclusive = falling curve, mostly with a smaller effect; inactive = flat or rising curve; cell line not stated here;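 further: intracellular cAMP measured with PDE inhibitor Ro 20-1724 present during compound exposure; potency means the concentration at half of the fitted maximal effect; on the % scale 0 is the no-effect control and ±100 the full control effect; nearly all actives have a fitted effect of over 65% in size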
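G418-selected cells were plated in DMEM/10% FBS for 16-24 h at 37C, then treated with compounds plus the PDE inhibitor […] (300 uM solution added) for 30 min at 37C. Intracellular cAMP was measured by HTRF after 30 min lysis at room temperature.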
TRPML1 ag – qHTS for Agonists of the Human Mucolipin Transient Receptor Potential 1 (TRPML1). Mucolipin-1 (Homo sapiens), Q9GZU1. activation, % (concentration not given with the values). 410,000 tested, 0.12% active. AID 624414, 2012. TRPML1-expressing cells, Ca2+ dye fluorescence, FDSS; host cell line not named in the record; reference of the full effect not given here; in the data active = activation above about 50%; inconclusive = about 30% to 50%; inactive = below about 30%; further: 0% is about no effect; the text of the record puts the active cut at 80%
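Tet-induced TRPML1-DL cells, 1,500 per well, cultured overnight, were loaded with a no-wash Ca2+ dye for 45–90 min. Calcium fluorescence was recorded on the FDSS for 110 s after compound addition, before the EC80 agonist (4 uM 54-4) was added.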
gsp agonist – qHTS for Agonist of gsp, the Etiologic Mutation Responsible for Fibrous Dysplasia/McCune-Albright Syndrome: qHTS; gsp mutant cells, cAMP HTRF, 30 min; control for the full effect not named in the record; Potency, µM (top dose mostly 76.9 µM), without a hit: at the highest dose activation (cAMP increase), hits mostly activators; 340,000 tested, 0.13% active; AID 624287, 2012; active = well fitted activation curve with a large enough effect; inconclusive = small, poorly fitted or top-dose-only effect, or another doubt; inactive = no such curve, though single readings can be large or run the other way; cell line not stated here;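 further: phosphodiesterase inhibitor Ro 20-1724 added with compounds to block cAMP breakdown; potency means the concentration at half of the fitted maximal effect; nearly all actives have a fitted effect of over 60% in size; about a fifth of the inactives were tested at one dose only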
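Cells stably selected in G418 were plated at 2000/well, grown 16-24 hr, then given compounds in DMSO with the PDE inhibitor […] (300 uM solution added) for 30 min at 37C; cAMP was read by HTRF.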
ClpP mod – qHTS Assay for Activators of ClpP | ATP-dependent Clp protease proteolytic subunit (Bacillus subtilis (strain 168)), P80244 | purified B. subtilis ClpP, FRET peptide cleavage, 20 min | 340,000 tested, 1.9% active | Potency, µM (series often up to 57.5 µM), for the others: at the top dose activity change, negative = active; active = well fitted falling curve with a large enough effect; inconclusive = small, poorly fitted or top-dose-only effect; inactive = no such curve, though single readings can be large or run the other way; further: potency means the concentration at half of the fitted maximal effect; the source files actives as falling curves though it sought activators and does not explain the sign; nearly all actives have a fitted effect of over 65% in size; many hits overshoot -100%
Target sequence (P80244 whole entry, looked up): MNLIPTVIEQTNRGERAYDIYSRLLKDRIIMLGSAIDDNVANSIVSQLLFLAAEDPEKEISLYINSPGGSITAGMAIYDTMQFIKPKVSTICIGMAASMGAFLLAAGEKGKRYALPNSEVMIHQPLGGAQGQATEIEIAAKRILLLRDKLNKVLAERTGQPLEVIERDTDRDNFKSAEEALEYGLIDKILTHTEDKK
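Purified B. subtilis ClpP, 10 microg/mL final in Tris/HCl pH8 with KCl, BSA, glycerol and Tween-20, cleaved an Abz/nitrotyrosine-quenched decapeptide. Fluorescence (ex 320, em 430) was read at 0 and 20 min at room temperature. Delta was normalized to 5.8 microM ADEP and DMSO/no-enzyme controls.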
Active calls of the source: *; ? = inconclusive; · = no result given; & = joins results of further samples; [ ] = dose if it differs, or a comment.

Assay codes – A = Menin MLL FP FL; B = TRPML1 inh; C = gsp antagonist; D = TRPML1 ag; E = gsp agonist; F = ClpP mod
1. O=C(Cn1cc(COc2cccc([N+](=O)[O-])c2)nn1)c1ccc(O)cc1
  A = ·; B = 0.3; C = -8.2%; D = 0.0; E = ·; F = 1.7%
2. Cc1ncsc1CCOC(=O)c1cccc([N+](=O)[O-])c1
  A = 1.9&0.3; B = -27.6; C = -3.7%&-23.7%; D = 1.0; E = 27.0%&-8.8%; F = -1.0%&0.0%
3. S=c1[nH]c2ccccc2n1Cc1ccccc1
  A = -0.4; B = -9.6; C = -1.6%; D = 2.2; E = -29.8%; F = ·
4. CCOC(=O)C1=C(C)OC(N)=C(C#N)C1c1cc2c(cc1[N+](=O)[O-])OCO2 (configuration not stated)
  A = ?; B = 45.0; C = -12.5%; D = 1.7; E = 2.3%[15.4 µM]; F = ·
5. CCOC(=O)/C(=C\Nc1ccc(OC(F)(F)F)cc1)Sc1ncc(C(F)(F)F)cc1Cl
  A = 0.4; B = 35.9; C = -2.4%; D = 1.1; E = -57.6%[inhibitor]; F = -5.5%
6. Cc1ccc(N2C(=O)CSC2c2c(F)cccc2Cl)cc1 (configuration not stated)
  A = 2.2; B = -8.8; C = -9.7%; D = 1.2; E = -11.5%; F = 0.0%
7. COc1ccc(-n2c(SCC(=O)N3CCCCC3)nnc2-c2cccnc2)cc1
  A = 2.0; B = -9.1; C = -10.6%; D = 2.2; E = -9.7%; F = -2.7%
8. CCN1C(=O)N[C@@H](CCc2ccccc2)[C@H](C(=O)OC)[C@H]1C
  A = -2.3[11.7 µM]; B = -17.4; C = -0.5%; D = 2.3; E = ·; F = 1.0%
9. N#Cc1cccnc1N1CCN(C(=O)c2cccc3c2C(=O)c2ccc(-c4ccc(F)cc4OCc4ccccc4)cc2S3(=O)=O)CC1
  A = ·; B = 20.3; C = -6.7%; D = -0.1; E = ·; F = -3.5%
10. COC(=O)CN(C#N)c1nc(C)cc(C)n1
  A = 3.2; B = 16.1; C = 9.3%; D = 1.8; E = 18.7%; F = -2.8%
11. COC(=O)Nc1sc2c(c1C(=O)N1CCOCC1)CCC(C)C2 (configuration not stated)
  A = 2.1; B = -5.0; C = 7.2%; D = -0.4; E = -57.7%[inhibitor]; F = -8.6%
12. CCOC(=O)c1c(C)oc2ccc(OC(=O)COc3c(F)c(F)c(F)c(F)c3F)cc12
  A = 3.6; B = -9.2; C = -28.1%; D = 0.4; E = 28.1%; F = 1.8%
13. CCOc1ccc(N/N=C(/C#N)C(N)=O)cc1
  A = 1.1; B = 27.8; C = 0.0%; D = 1.7; E = -58.8%[inhibitor]; F = 1.3%
14. CC(C)(C)OC(=O)C[C@H]1C/C=C\C[C@@H](CC(=O)N[C@H](CO)Cc2ccccc2)C(=O)N2CCC[C@H]2COC1=O
  A = ·; B = 6.1; C = -1.4%; D = -0.8; E = ·; F = 1.6%
15. O=c1nccc(SCc2ccc(Cl)cc2Cl)[nH]1
  A = 1.7; B = -2.1; C = -4.2%; D = 0.0; E = -11.5%; F = 0.1%
16. COc1ccc(CNS(=O)(=O)c2ccc(S(=O)(=O)N3CCCCC3)cc2)cc1
  A = -0.5; B = -11.7; C = 2.8%; D = 0.7; E = -36.4%; F = 1.0%
17. COc1ccc(NC(=O)/C(=C\c2cccs2)NC(=O)c2ccco2)cc1
  A = -1.1; B = 19.6; C = 0.7%; D = 2.0; E = -1.7%; F = 0.7%
18. Cc1ccc(/C=N/NC(=O)c2c[nH]c3ccccc23)o1
  A = 0.1; B = 10.1; C = -10.8%; D = -0.4; E = -12.7%; F = 0.4%
19. Cn1c(/N=C/c2cccs2)nc2ccccc21
  A = 1.2; B = 14.0; C = 0.8%; D = 1.0; E = -80.5%[inhibitor]; F = -1.9%
20. Cc1nc(-c2ccc(F)cc2)c(CC(=O)N2CCN(S(=O)(=O)c3cccc([N+](=O)[O-])c3)CC2)s1
  A = ·; B = -0.4; C = -5.4%; D = 2.7; E = -50.1%[15.4 µM]; F = ·
21. CCOc1ccccc1NC(=O)CSc1nc2[nH]ncc2c(=O)[nH]1
  A = ·; B = 1.9; C = -5.8%; D = -0.8; E = -2.4%[15.4 µM]; F = ·
22. COc1ccc(S(=O)(=O)N2CCOCC2)cc1NC(=O)CSc1ccccc1
  A = 5.6; B = -4.7; C = -6.9%; D = 1.4; E = 2.9%; F = 0.4%
23. COc1ccccc1CNC(=O)c1cc(-c2ccccc2)nn1CC1CC(c2cccc([N+](=O)[O-])c2)=NO1 (configuration not stated)
  A = ·; B = 6.7; C = -3.6%; D = 0.0; E = ·; F = -2.4%
24. CCc1ccc2oc(-c3cc(NC(=O)c4cc(OC)c(OC)c(OC)c4)ccc3O)nc2c1
  A = ·; B = 1.9; C = ·; D = -0.8; E = ·; F = 0.7%
25. Cn1c(=NC(=O)c2ccc(S(=O)(=O)N3CCCC3)cc2)sc2cc(F)ccc21
  A = ·; B = -14.8; C = ·; D = 0.6; E = ·; F = 1.0%
26. CC1Nc2ncnc(N3CCN(c4ccccn4)CC3)c2N(Cc2ccccc2)C1=O (configuration not stated)
  A = ·; B = 1.6; C = -2.2%; D = -0.4; E = ·; F = -9.1%
27. CCc1ccc(NC(=S)N(CCN(C)C)C(C)c2ccncc2)cc1 (configuration not stated)
  A = -2.2; B = -21.9; C = -4.2%; D = -0.8; E = -31.6%[inhibitor]; F = -0.6%
28. Cc1ccc(Cl)cc1N1CCN(C(=O)c2ccc3c(c2)N(Cc2ccc(F)cc2)CCS3)CC1
  A = ·; B = 1.7; C = ·; D = -0.1; E = ·; F = 4.1%
29. Cc1cc(C(F)(F)F)n2nc(-c3cnn(C)c3C(F)(F)F)c(Br)c2n1
  A = 5.1; B = 27.4; C = 3.3%; D = 1.9; E = 2.5%; F = 1.3%
30. COC(=O)c1c(NC(=O)C(C)(C)C)sc2c1CCN(Cc1ccccc1)C2
  A = 0.9; B = 0.5; C = -4.3%; D = 1.6; E = -1.3%; F = -26.8%
31. CCN(CC)S(=O)(=O)c1cccc(NC(=O)CNC2CCCCCC2)c1
  A = 1.9; B = 7.8; C = 7.4%; D = -0.9; E = 2.9%; F = 0.6%
32. Cc1ncc(CN2CCCC(C(=O)Nc3ccc(-c4ccco4)cc3)C2)cn1 (configuration not stated)
  A = ·; B = 14.2; C = -1.6%; D = 0.7; E = -19.8%; F = -3.0%
33. COc1cccc(-c2ccc3c(N)c(C(=O)NCc4ccc(Cl)cc4)sc3n2)c1
  A = ·; B = 9.4; C = ·; D = -0.3; E = ·; F = -7.2%
34. CC(=O)N(Cc1cc2cc(C)c(C)cc2n2nnnc12)CC1COCCO1 (configuration not stated)
  A = -2.5; B = -2.4; C = -8.8%; D = -0.1; E = 2.4%; F = -9.3%
35. C=C(C)[C@@H]1CC[C@]2(C(=O)O)CC[C@]3(C)C(CCC4[C@@]5(C)CC[C@H](O)C(C)(C)C5CC[C@]43C)C12 (some centres not stated)
  A = 1.8; B = ·; C = 1.3%; D = ·; E = ·; F = 2.1%
36. CCCN(CCC)CCCNC(=O)c1cn(CC)c2ccc(S(=O)(=O)N(C)C3CCCCC3)cc2c1=O
  A = -4.0; B = 24.3&-22.1; C = 2.4%; D = -0.5&-0.8; E = 1.1%; F = 0.6%&0.6%
37. COc1ccc(-c2cc3ccccc3oc2=O)cc1NC(=O)c1ccc(Br)o1
  A = 6.2; B = 16.1; C = -11.5%; D = -0.5; E = -6.0%; F = -27.6%
38. CCCC1=[N+](CC(C)=O)CCn2c(C)ccc21
  A = -0.9; B = 0.8; C = 0.0%; D = -0.1; E = -5.3%; F = 3.5%

2 entries from above, with tabs.
#	structure	Menin MLL FP FL	TRPML1 inh	gsp antagonist	TRPML1 ag	gsp agonist	ClpP mod
38	CCCC1=[N+](CC(C)=O)CCn2c(C)ccc21	-0.9	0.8	0.0%	-0.1	-5.3%	3.5%
36	CCCN(CCC)CCCNC(=O)c1cn(CC)c2ccc(S(=O)(=O)N(C)C3CCCCC3)cc2c1=O	-4.0	24.3&-22.1	2.4%	-0.5&-0.8	1.1%	0.6%&0.6%

Compounds above with an aryl methoxy group (8):
Assay codes – A = Menin MLL FP FL; B = TRPML1 inh; C = gsp antagonist; D = TRPML1 ag; E = gsp agonist; F = ClpP mod
7. COc1ccc(-n2c(SCC(=O)N3CCCCC3)nnc2-c2cccnc2)cc1
  A = 2.0; B = -9.1; C = -10.6%; D = 2.2; E = -9.7%; F = -2.7%
16. COc1ccc(CNS(=O)(=O)c2ccc(S(=O)(=O)N3CCCCC3)cc2)cc1
  A = -0.5; B = -11.7; C = 2.8%; D = 0.7; E = -36.4%; F = 1.0%
17. COc1ccc(NC(=O)/C(=C\c2cccs2)NC(=O)c2ccco2)cc1
  A = -1.1; B = 19.6; C = 0.7%; D = 2.0; E = -1.7%; F = 0.7%
22. COc1ccc(S(=O)(=O)N2CCOCC2)cc1NC(=O)CSc1ccccc1
  A = 5.6; B = -4.7; C = -6.9%; D = 1.4; E = 2.9%; F = 0.4%
23. COc1ccccc1CNC(=O)c1cc(-c2ccccc2)nn1CC1CC(c2cccc([N+](=O)[O-])c2)=NO1 (configuration not stated)
  A = ·; B = 6.7; C = -3.6%; D = 0.0; E = ·; F = -2.4%
24. CCc1ccc2oc(-c3cc(NC(=O)c4cc(OC)c(OC)c(OC)c4)ccc3O)nc2c1
  A = ·; B = 1.9; C = ·; D = -0.8; E = ·; F = 0.7%
33. COc1cccc(-c2ccc3c(N)c(C(=O)NCc4ccc(Cl)cc4)sc3n2)c1
  A = ·; B = 9.4; C = ·; D = -0.3; E = ·; F = -7.2%
37. COc1ccc(-c2cc3ccccc3oc2=O)cc1NC(=O)c1ccc(Br)o1
  A = 6.2; B = 16.1; C = -11.5%; D = -0.5; E = -6.0%; F = -27.6%

Compound activity from PubChem BioAssay.
